# A647 fluor: compound fluoresces in the A647 spectral region; max dye-equivalent concentration, M; 59,000 tested, under 10 active; Compound fluorescence, A647 channel (570/671 nm), Tris buffer; active means above 1 µM dye equivalent; inconclusive means 0.1 to 1 µM; inactive means 0.1 µM or less;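 also: values scaled relative to a standard on each plate; highest value over a series up to 38 µM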
#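 Compounds pinned into 100 mM Tris pH 8.0, 15 min at room temperature, then read with 570 nm excitation/671 nm emission filters. Fluorescence normalized to an on-plate six-point Alexa 647 standard curve, giving dye-equivalent concentration per compound concentration.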
# A488 fluor: A488 region autofluorescence; compound autofluorescence, A488 spectral region, dye equivalency; active compounds read high; max dye equivalency, M; 59,000 compounds, 0.1% hits; active = above 10 nM dye equivalent; inconclusive = 1 to 10 nM; inactive = 1 nM or less; about half of its hits are not listed in these tables;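 also: highest value over a series up to 38 µM; compound alone in buffer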
#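 Compound autofluorescence was read in 100 mM Tris pH 8.0 after 15 min at room temperature, ex 480 nm/em 540 nm. Intensities were converted to A488 dye-equivalent concentration using an on-plate six-point A488 standard curve.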
# Resorufin fluor: compound fluoresces in the resorufin spectral region; Compound fluorescence, resorufin region 547/598 nm, buffer; active compounds read high; max dye-equivalent concentration, M; 59,000 compounds, 0.04% hits; AID 588; active = above 10 nM dye equivalent; inconclusive = 1 to 10 nM; inactive = 1 nM or less; a few of its hits are not listed in these tables; also: highest value over a series up to 38 µM
#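 Compounds in 100 mM Tris buffer, pH 8.0, incubated 15 min at room temperature, then read with 547 nm excitation and 598 nm emission filters. Fluorescence was converted to dye-equivalent concentration using an on-plate six-point resorufin standard curve.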
# AID923: qHTS Assay for Allosteric/Competitive Inhibitors of Caspase-1: Spectroscopic Profiling in AFC Spectral Region | 75,000 compounds, 1.1% hits | Potency, µM (series often up to 57.5 µM), for inactives: at the top dose fluorescence increase, hits mostly activators | compound fluorescence, AFC spectral region (405/520 nm); almost no hit is shown here; active = well fitted activation curve with a large enough effect; inconclusive = small, poorly fitted or top-dose-only effect;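 also: potency is read from the fitted curve at half-maximal effect; 0% is about no effect; scaled to a free AFC standard on each plate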
#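 Compound autofluorescence profiled at 405 nm ex/520 nm em during kinetic caspase 1 run (50 nM enzyme, 5 uM Ac-WEHD-AFC, HEPES pH 7.5, 10 mM DTT). Titration up to 57 uM; baseline from regression intercept, normalized to AFC standard curve.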
# TSHR agonist: TSH receptor (human) agonism; HEK293-CNG-TSHR cells (CNG channel as cAMP sensor), membrane potential dye, cAMP; Potency, µM (series often up to 57.1 µM), for inactives: top-dose activation, usual class: activators; 73,000 compounds, 0.48% hits; AID 926; active = well fitted activation curve of enough size with the parental cells flat; inconclusive = any curve in the parental cells; inactive = parental cells flat and receptor cells flat or falling; also: potency is read from the fitted curve at half-maximal effect; % of control where 0% means no effect; weak receptor curves with flat parental cells got no call and are not listed
# Target sequence (P16473 whole entry, looked up): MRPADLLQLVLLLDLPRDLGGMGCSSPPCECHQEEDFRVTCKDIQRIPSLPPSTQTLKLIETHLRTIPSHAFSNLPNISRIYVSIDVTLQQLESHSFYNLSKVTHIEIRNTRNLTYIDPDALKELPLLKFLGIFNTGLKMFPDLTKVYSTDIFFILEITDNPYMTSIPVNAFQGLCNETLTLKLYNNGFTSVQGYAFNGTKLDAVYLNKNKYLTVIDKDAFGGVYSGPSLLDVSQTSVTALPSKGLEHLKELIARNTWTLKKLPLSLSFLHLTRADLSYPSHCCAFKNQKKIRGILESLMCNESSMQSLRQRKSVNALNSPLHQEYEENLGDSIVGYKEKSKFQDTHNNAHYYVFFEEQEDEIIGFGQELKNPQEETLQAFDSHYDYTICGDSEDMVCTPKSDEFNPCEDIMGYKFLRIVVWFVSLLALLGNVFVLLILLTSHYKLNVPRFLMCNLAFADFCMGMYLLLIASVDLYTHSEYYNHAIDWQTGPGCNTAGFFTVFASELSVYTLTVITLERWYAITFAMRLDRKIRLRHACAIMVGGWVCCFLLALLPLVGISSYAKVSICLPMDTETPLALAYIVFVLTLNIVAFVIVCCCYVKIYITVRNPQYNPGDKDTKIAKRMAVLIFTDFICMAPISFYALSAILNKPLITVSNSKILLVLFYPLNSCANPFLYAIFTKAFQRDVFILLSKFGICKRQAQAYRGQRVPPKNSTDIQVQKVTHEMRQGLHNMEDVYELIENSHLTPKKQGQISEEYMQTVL
#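 HEK 293 cells stably expressing TSHR and a modified CNG channel, with CNG-only parental cells as counterscreen, were preloaded 60 min at room temperature with membrane potential dye containing 100 uM RO 20-1724. Compound exposure was 30 min, and depolarization was read as fluorescence at 590 nm.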
# Numbers without * were called inactive; i = inactive; ? = inconclusive; . = no result given; [ ] = another dose, or the depositor's remark.
SMILES,A647 fluor,A488 fluor,Resorufin fluor,AID923,TSHR agonist
CC1CN(Cc2ccc(C#N)cc2Cl)CC(C)O1 (centres undefined),1e-09,i,i,1.1%,5%
Cc1ccc(-n2c3c(cc(C(=O)NC4CCSC4=O)c2=O)C(=O)CCC3)cc1 (centres undefined),1.7e-09,i,i,1.1%,11%
CCOC(=O)CNC(=O)c1c(C)nn(-c2ccccc2)c1Cl,1e-09,i,i,-0.3%,1%
CC1CCC(C(=O)O)NC1c1ccc(-c2ccco2)cc1 (centres undefined),.,.,.,4.1%[11.5 µM],8%[11.4 µM]
O=C(c1ccc(S(=O)(=O)N2CCCCC2)cc1)N1CCN=C1SCc1cccnc1,.,.,.,2.9%,-3%
O=C(OCC(=O)N1CCN(C(=O)c2ccco2)CC1)c1ccccc1OCc1ccc(Cl)cc1,5.6e-09,i,i,-0.4%,?
C=CCN1C(=O)CN=C1Nc1cccc(C)c1,3.8e-09,i,i,0.2%,-2%
COc1ccc(N2CCC(CNS(=O)(=O)c3cccc(C(F)(F)F)c3)C2)cc1 (centres undefined),2.7e-08,i,i,-0.2%,-13%
CCN(Cc1ccncc1)C(=O)c1cccc(S(=O)(=O)N2CCOCC2)c1,2.4e-08,i,i,-0.6%,2%[11.4 µM]
CC1=C2C(CCS2(=O)=O)CC2(C1)C(=O)OC(C)(C)OC2=O (centres undefined),1.7e-08,i,i,-1.4%,?
Cc1cc(Nc2ccc(Cl)cc2)n2nnnc2n1,3.1e-08,i,i,-2.3%,-15%
COc1nc(Nc2ccc(OC)c(Cl)c2)nc(OC)n1,7.9e-09,i,i,-1.6%,-2%
O=C(CSc1nc(-c2ccccc2)cs1)Nc1nccs1,2.7e-09,i,i,-0.3%,5%
COc1ccc(Cc2nnc(SCC(=O)c3ccc(OC)cc3)o2)cc1,3.5e-09,i,i,-2.1%,?
CCOC(=O)c1c(C)[nH]c(C=Nc2ccccc2)c1O,3.6e-08,i,i,2.9%,-1%
Cc1nnc(SC(C)C(=O)Nc2ccc(S(=O)(=O)N3CCCCCC3)cc2)s1 (centres undefined),1.4e-08,i,i,-5.7%,19%
C=CCN(C(=O)CCC(=O)O)C1CC(=O)N(c2ccc(OC)cc2)C1=O (centres undefined),1e-09,i,i,.,.
COC(=O)C(O)(CC(=O)Nc1ccc(Cl)cc1F)C(F)(F)F (centres undefined),2.6e-09,i,i,-3.4%,19%
CC(C)Oc1cccc(C(=O)Nc2ccc(CN3CCOCC3)cc2)c1,3.3e-09,i,i,-1.4%,4%
CC(c1ccccc1)n1cnc2ccccc21 (centres undefined),.,.,.,0.7%,6%
Nc1nc(C(=O)N2CCOCC2)nn1S(=O)(=O)c1ccccc1,3.5e-09,i,i,-0.2%,-1%
COc1ccccc1CNc1nc(-c2ccc(C(=O)N(C)C)cc2)nc2ccccc12,1.3e-09,i,i,1.3%,?
COCCn1nnnc1SCC(=O)c1ccccc1,1e-09,i,i,1.3%,-3%
COc1ccccc1N1CCN(C(=O)c2cc3c(-c4ccc(Cl)cc4)nn(C)c3s2)CC1,.,.,.,0.3%,-3%
Cc1cnc(NC(=O)CSc2nnc(COc3c(C)cccc3C)o2)s1,.,.,.,-0.8%,2%

# Next section:
SMILES,A647 fluor,A488 fluor,Resorufin fluor,AID923,TSHR agonist
CS(=O)(=O)N1CCC2(CC1)CN(c1ccccn1)C2,8.7e-09,i,i,0.2%,3%
O=C(c1csnn1)N1CCC2(CCCN(c3ncccn3)C2)CC1,1.5e-09,i,i,2.9%,?
O=C(Nc1ccc2c(c1)OCCO2)c1cccnc1,3.1e-08,i,i,0.9%,2%
COc1ccccc1N1CCN(C(=O)CCc2ccc(S(=O)(=O)NC(C)C)cc2)CC1,4.6e-08,i,i,2.6%,-3%
S=c1[nH]nc(-c2ccco2)n1Cc1ccccc1,8.3e-08,i,i,.,.
CC(C)OC(=O)c1ccc(OC(=O)c2cccnc2)cc1,.,.,.,0.1%,7%
N#CC1=C(N)C(C#N)(C#N)[C@H](c2ccncc2)[C@H]2CN(C(=O)OCc3ccccc3)CC=C12,2.5e-08,i,i,.,.
CCc1c(C)nc2cc(-c3cc(OC)cc(OC)c3)nn2c1N1CCCC1,1.7e-08,i,i,0.1%,?
CCC(C)[C@H](NC(=O)NCc1ccc(Cl)cc1)C(=O)OC (some centres undefined),2.5e-08,i,i,0.9%,7%
CC(C(=O)Nc1ccc2c(c1)OCO2)N(c1ccc(Cl)cc1)S(C)(=O)=O (centres undefined),4.8e-09,i,i,0.3%,16%
CCOC(=O)CN1C(=O)c2ccccc2C1=O,1e-09,i,i,-0.9%,1%
CCCC(OC(=O)CC1Sc2ccccc2NC1=O)C(=O)NCc1ccco1 (centres undefined),1e-08,i,i,-2.7%,9%
COc1ccc(NC(=O)N2CCCCC2)cc1,1e-09,i,i,3.7%,3%
N#Cc1ccc(-c2cccnc2)nc1SCC(=O)Nc1sc2c(c1C#N)CCC2,1e-09,i,i,.,.
CN(C)Cc1ccccc1-c1nccc(N(C)C)n1,2.4e-08,i,i,0.1%,15%
COc1cc2nc(SCc3c(C)noc3C)n(CCC3=CCCCC3)c(=O)c2cc1OC,3.7e-08,i,i,-0.6%,17%
O=C(O)CC1(CC(=O)O)Nc2ccccc2SC1=O,3.8e-08,i,i,3.2%[11.5 µM],0%[11.4 µM]
COc1ccc(CNc2ncnc3ccc(-c4cccc(C#N)c4)cc23)c(OC)c1,3.4e-08,i,i,0.5%,16%
CCOC(=O)Cn1c(=O)oc2cc(S(=O)(=O)N(CCN(C)C)Cc3ccccc3)ccc21,7.5e-09,i,i,-0.7%,-6%
CCCCC(=O)Nc1ccccc1C#N,2.1e-08,i,i,-0.4%,?
CCOC(=O)CSc1nc2sc3c(c2c(=O)[nH]1)CC(C)(C)OC3,2.2e-09,i,i,.,.
Cc1c(NC(=O)c2ccc(Cl)c(S(=O)(=O)N3CCOCC3)c2)c(=O)n(-c2ccccc2)n1C,1e-09,i,i,0.4%,10%
CCOC(=O)CNS(=O)(=O)c1c(C)noc1C,3.5e-08,i,i,0.3%,0%
[O-]/[N+](=C\c1ccncc1)c1ccc(Br)cc1,.,.,.,0.8%,4%
CN=c1nc(-c2ccccc2)n(-c2ccccc2)s1,1.8e-08,i,i,-2.5%,6%

# Copied from the list:
# Under A647 fluor, `CCCCC(=O)Nc1ccccc1C#N` is entered as 2.1e-08
# Under A647 fluor, `CCOC(=O)CSc1nc2sc3c(c2c(=O)[nH]1)CC(C)(C)OC3` is entered as 2.2e-09

# The listing continues.
SMILES,A647 fluor,A488 fluor,Resorufin fluor,AID923,TSHR agonist
COc1cc(Nc2cc(C)nc3ncnn23)cc(OC)c1OC,.,.,.,2.0%,6%
O=C(CN1CCCCC1)Nc1ccc(S(=O)(=O)N2CCCCCC2)cc1,3.8e-08,i,i,0.9%,-3%[11.4 µM]
Nn1c(SCC(=O)Nc2ccc3c(c2)OCCO3)nnc1C(F)(F)F,1e-09,i,i,.,.
Cc1ccc(C(=O)Cn2c(C)cc(C)c(C#N)c2=O)cc1,4.6e-09,i,i,1.6%,5%
CN(C)Cc1ccccc1-c1nc(N(C)Cc2ccco2)c2ccccc2n1,1e-09,i,i,-1.2%,?
C=CCNC(=O)COc1ccc(S(=O)(=O)NC2CCCCC2)cc1,2.8e-09,i,i,0.1%,-7%
CCn1c(SCC(=O)Nc2cc(NC(C)=O)ccc2OC)nnc1-c1cccnc1,3.3e-09,i,i,0.5%,7%
NC(CSS(=O)(=O)O)=N[C@@H]1C[C@H]2CC[C@@H]1C2,2.8e-08,i,i,4.5%[11.5 µM],4%[11.4 µM]
CCCS(=O)(=O)N1CCn2c(nc3ccccc32)C1,.,.,.,-1.8%,6%
CCCCOc1ccc(C(=O)Nc2ccc(N3CCN(C(C)=O)CC3)cc2)cc1,6e-09,i,i,.,.
CSc1ccccc1NC(=O)C1CC(c2ccccc2O)=NO1 (centres undefined),3.9e-08,i,i,-0.7%,19%
COc1cccc(/C(O)=C2/C(=O)C(=O)N(Cc3ccco3)C2c2ccncc2)c1 (centres undefined),7.1e-09,i,i,0.7%,-6%
O=C(Nc1nc2ccccc2[nH]1)c1ccc(F)cc1,1e-09,i,i,0.5%,0%
COc1ccc(NC(=O)CN2CCN(S(=O)(=O)c3ccc(F)cc3)CC2)cc1Cl,.,.,.,-3.0%,13%
CC1(C)N=C(c2ccc(Cl)cc2Cl)C(=O)N1,1e-09,i,i,0.3%,-1%
Cc1nc2c(oc3ccccc32)c(=O)o1,2.5e-09,i,i,-0.9%,4%
CC(=O)NC(c1ccco1)c1ccc2cccnc2c1O (centres undefined),.,.,.,2.4%,1%
COc1ccc(-c2nc(C#N)c(N3CCN(c4cccc(Cl)c4)CC3)o2)cc1OC,1.4e-08,i,i,-0.2%,29%
Cc1ccnc(SCC(=O)Nc2sc3c(c2C#N)CCCC3)n1,1e-09,i,i,0.2%,?
CCOC(=O)CSc1nc(C)c2cc(OC)ccc2n1,1e-09,i,i,1.1%,-4%
CCCCOc1ccc(/C(O)=C2/C(=O)C(=O)N(CCCOC)C2c2ccncc2)cc1C (centres undefined),.,.,.,-2.3%,2%[11.4 µM]
CCCCn1c(SCC(N)=O)nnc1-c1ccco1,3.2e-08,i,i,-0.8%,8%
CCOC(=O)N1CCC(N(CCOC)C(=O)Nc2ccc(CC)cc2)CC1,4.1e-09,i,i,-2.6%,16%
Cc1ccc(-n2c(C)nc3c(cnn3-c3ccc(F)cc3)c2=O)cc1,1e-09,i,i,-1.0%,?
CCOC(=O)c1[nH]c(C)c(C(=O)Nc2ccc3c(c2)OCCO3)c1C,1.1e-09,i,i,-1.1%,10%[11.4 µM]

# Rewritten tab-delimited: part of the list above
structure	A647 fluor	A488 fluor	Resorufin fluor	AID923	TSHR agonist
Cc1ccnc(SCC(=O)Nc2sc3c(c2C#N)CCCC3)n1	1e-09	i	i	0.2%	?
Nn1c(SCC(=O)Nc2ccc3c(c2)OCCO3)nnc1C(F)(F)F	1e-09	i	i	.	.
COc1cccc(/C(O)=C2/C(=O)C(=O)N(Cc3ccco3)C2c2ccncc2)c1 (centres undefined)	7.1e-09	i	i	0.7%	-6%
COc1ccc(-c2nc(C#N)c(N3CCN(c4cccc(Cl)c4)CC3)o2)cc1OC	1.4e-08	i	i	-0.2%	29%
CCCS(=O)(=O)N1CCn2c(nc3ccccc32)C1	.	.	.	-1.8%	6%
CCCCn1c(SCC(N)=O)nnc1-c1ccco1	3.2e-08	i	i	-0.8%	8%

# Additional records
SMILES,A647 fluor,A488 fluor,Resorufin fluor,AID923,TSHR agonist
Cn1c(=O)c2[nH]c(CCS)nc2n(C)c1=O,1e-09,i,i,-0.6%[11.5 µM],-2%[11.4 µM]
COCCCn1cnc2c(c1=O)c1nc3ccccc3nc1n2-c1ccccc1,2.3e-09,i,i,4.3%,-7%
COC(=O)c1ccccc1NC(=O)c1noc2c1CCCC2,1e-09,i,i,-1.5%,22%
COc1cc(C(=O)Nc2ccccn2)cc(OC)c1OC,7.1e-08,i,i,.,.
COc1ccc(N2CCN(c3oc(COc4ccccc4Cl)nc3C#N)CC2)cc1,.,.,.,2.4%,?
CCOC(=O)Cc1csc(NC(=O)CCc2ccc(S(=O)(=O)N3CCOCC3)cc2)n1,2.5e-08,i,i,-1.0%,?
C[C@H]1C[C@@H]2[C@H]3CCC4=CC(=O)C=C[C@@]4(C)[C@]3(Cl)[C@@H](Cl)C[C@]2(C)[C@]1(O)C(=O)COP(=O)(O)O,1e-09,i,i,.,0%[11.4 µM]
O=C(CN1CCOCC1)Nc1ccc(-c2nc3ccccc3[nH]2)cc1,6.6e-09,i,i,0.0%,8%
COC(=O)c1ccc(NC(=O)CN(c2ccc(OC)cc2)S(C)(=O)=O)cc1,3.2e-08,i,i,0.9%,4%
O=C(NCc1ccccn1)C(C(=O)c1ccc(F)cc1)n1ccccc1=O (centres undefined),1.7e-09,i,i,-1.3%,-6%

# Compound activity: PubChem, National Center for Advancing Translational Sciences (NCATS)

# Only part of the results is shown; the hit share may differ from the screen's.
